# From PubChem BioAssay
# CSC inhib – blocks cancer stem cells; cancer stem cell-like cells viability, luminescence; inhibition, % at 7.5 µM; 300,000 tested, 1.1% active; AID 2717;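 active means mean at 75% or more and at least half the replicates too; inconclusive means mean and replicates disagree; tested in HMLE shEcad cells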;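 further: 0% = median of negative and 100% = median of positive control wells; the first replicate is given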
# UUG fidelity – alters start codon recognition fidelity in yeast; S. cerevisiae UUG-firefly luciferase reporter, luminescence/redox ratio; 350,000 tested, 0.13% active; AID 602363; activity score, % at 18.7 µM;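 active means replicate mean at a twofold rise or more, about +100% in these data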;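 further: firefly luciferase made from a UUG start codon reports start codon fidelity; reporter light over untreated wells divided by growth signal over untreated wells; some hits fall short of that in this replicate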
# Rce1 inh – yeast Ras-converting enzyme inhibition | calls only | 290,000 tested, 0.27% active | yeast membranes, quenched prenylated peptide cleavage fluorescence | Q03530 | AID 2563;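 active means fall in fluorescence gain of 50% or more versus controls, with final raw signal at or below 3038400; inconclusive means same 50% fall but final raw signal above 3038400; inactive means fall in fluorescence gain under 50%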;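 further: plate controls were neutral control wells for no effect and wells lacking membranes for full effect; tested at 10 µM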
# Target sequence (Q03530 whole entry, looked up): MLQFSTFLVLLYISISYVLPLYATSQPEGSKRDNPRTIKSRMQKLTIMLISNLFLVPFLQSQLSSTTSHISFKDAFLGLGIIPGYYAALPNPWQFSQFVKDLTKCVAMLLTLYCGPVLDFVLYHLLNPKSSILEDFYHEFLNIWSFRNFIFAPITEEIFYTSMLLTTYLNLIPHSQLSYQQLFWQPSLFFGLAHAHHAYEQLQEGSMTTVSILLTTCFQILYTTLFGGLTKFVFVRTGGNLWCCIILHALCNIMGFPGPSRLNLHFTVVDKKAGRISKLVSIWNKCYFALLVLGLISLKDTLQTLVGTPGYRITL
# PABP FP inh – blocks human PABP binding to poly(A) RNA; 290,000 tested, 1% active; fluorescence polarization; inhibition, % at 35 µM;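 active means 50% or more with normal probe brightness, or confirmed in later tests; inconclusive means above 50% with abnormal brightness, or retests that disagree; inactive means below 50% or failed in later tests; about a fifth of its hits are not listed in these tables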;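 further: calls also rest on retests at 20 µM and on dose response follow-up; controls were probe without protein and protein plus probe with vehicle; some compounds called inactive have numbers as strong as hits; many hits fall short of the cut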
# HIV Env fusion – inhibitors of HIV Env-mediated cell fusion | AID 651610 | inhibition, % at 12.3 µM | 360,000 tested, 1.1% active | HeLa-JRFL Env/CEM21 cell fusion, luciferase;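 active means mean replicate inhibition score of at least 50 and every replicate individually at or above 50; inconclusive means only one of the two criteria met; inactive means mean below 50 and not all replicates reaching 50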;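 further: 0% = plate neutral controls and 100% = maraviroc near 300 nM; one replicate is shown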
# MT1-MMP act inh – blocks activation of human MT1-MMP. P50281. 360,000 tested, 0.061% active. HT1080 RFP-PRO-GFP cells, GFP/RFP ratio fluorescence, overnight; percent of plate control window, DMSO zero. GFP/RFP ratio change, % at 20 µM;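 active means GFP/RFP ratio change of at least 30% with cell ATP level not reduced by more than half and red fluorescence within 50% of control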; further: strong numbers were not always called active
#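 Material – HT1080 RFP-PRO-GFP cells · Control set – DMSO wells and RFP-L50D-GFP cells · Incubation – overnight cell settling, then overnight compound exposure, 37 °C, 5% CO2 · Compound dosing – single-point 20 µM compound, 1% DMSO · Read-out – GFP/RFP fluorescence ratio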
# eIF4H FP inh – inhibitors of RNA binding by human eIF4H. Q15056. eIF4H fluorescence polarization binding assay. inhibition, % at 35 µM. 290,000 tested, 0.94% active. AID 2012;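 active means 50% or more with normal probe brightness, or confirmed in later tests; inconclusive means above 50% with abnormal brightness, or retests that disagree; inactive means below 50% or failed in later tests; about a fifth of its hits are not listed in these tables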;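 further: calls also rest on retests at 20 µM and on dose response follow-up; 0% = protein and probe with vehicle and 100% = probe without protein; strong numbers were not always called active; many hits fall short of the cut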
# eIF4H FP inh retest – further read-out of eIF4H FP inh, marked with its call; inhibition, %; compound at 20 µM; confirmation average;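 mean of two retest wells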
# PABP FP inh retest – recorded beside PABP FP inh, whose call it bears; inhibition, %; compound at 20 µM; confirmation repeats;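 mean of two retest wells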
# MT1-MMP act inh RFP – also measured in MT1-MMP act inh; calls as there; RFP signal change, %; measured here: RFP expression control read;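 0 = vehicle wells; hits needed this value within 50% of zero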
# Active calls of the source: *; i = inactive; ? = inconclusive; . = not tested or not shown; + = active, no number; & = joins results of further samples; [ ] = another dose, or the depositor's remark. Only part of the results is shown. The share of hits here may be higher or lower than overall.
SMILES,CSC inhib,UUG fidelity,Rce1 inh,PABP FP inh,HIV Env fusion,MT1-MMP act inh,MT1-MMP act inh RFP,eIF4H FP inh,others
Cc1cc(C)c(S(=O)(=O)N2CCN(C(=O)c3cc4ccccc4o3)CC2)c(C)c1,.,-5,.,.,-21,3,1,.,
S=C(NCc1ccccc1)N1CCN(C2CCCCC2)CC1,7,-2,i,-11,1,6,5,-9,
CCOc1ccccc1Nc1nc(N)nc(CSc2nncn2C)n1,-6,.,i,-7,-31,-2,1,-10,
Cc1cc(Cl)ccc1NC(=O)CCN1C(=O)NC(C)(C)C1=O,-8,-22,.,.,-5,-3,-1,.,
CCN(CC)C(=O)C1CCN(S(=O)(=O)c2ccc3c(c2)CCCN3C(=O)C2CCC2)CC1,-9,10,i,.,14,6,-6,.,
CCOC(=O)c1ccc(N(CC2CO2)S(=O)(=O)c2ccc(C)cc2)cc1 (configuration not stated),.,12,.,.,-35,1,-5,.,
COc1ccc(/C(N)=N/OC(=O)Oc2ccccc2)cc1,-3,-15,.,-6,-25,3,7,-7,
CCOC1=C2[C@H](c3ccccc3Cl)N(S(=O)(=O)c3ccc(C)cc3)C[C@H]2C(C#N)(C#N)C(C#N)(C#N)C1,.,-11,.,.,24,0,0,.,
CCOC(=O)c1nccnc1C(=O)Nc1ccc(C(F)(F)F)cc1,-10,.,i,13,-35,-2,2,-3,
Cc1noc(C)c1NC(=O)Nc1ccc2c(c1)C(=O)N([C@H](C)CO)C[C@H](C)[C@@H](CN(C)C(=O)Nc1ccc(C(F)(F)F)cc1)O2,.,10&-2,.,.,18,3,7,.,
Cc1ccc(OCC(=O)Nc2ccc(F)cc2)cc1,8,-16,i,-8,.,1,-5,-8,
N#CC1(C#N)CC(C=O)=C(N)C1(C#N)CC(=O)c1ccc(F)cc1 (configuration not stated),-3,-13,i,?,.,-78,7,?,
c1ccc(C2=NC(c3ccccc3)N=C(c3ccccc3)N2)cc1,-15,-11,.,9,.,3,3,0,
CCOC(=O)c1c(/N=C/N(C)C)sc2c1CCC2,-2,-13,i,0,-26,0,5,13,
O=C(CO/N=C/c1ccccc1O)N1CCc2ccccc21,15,-20,i,20,-1,2,1,0,
C/C(=N\NC(=S)NCCc1ccccc1)c1cccc(Br)c1,15,-26,i,-6,-11,2,0,-9,
C[C@@H](O)CNC(=O)c1[nH]cnc1C(=O)N[C@H](C)c1ccccc1,.,-12,.,.,5,3,7,.,
O=C(O)CCNc1ccc2c(c1)OCCO2,3,-15,.,89*,.,-1,7,83*,eIF4H FP inh retest=88*;PABP FP inh retest=77*
S=c1[nH]nc(-c2ccccc2)n1/N=C/c1ccc(-c2ccccc2Cl)o1,102*,-14,i,-6,.,-1,-2,16,
COc1ccc(-c2ocnc2C(=O)N2CCN(C(=O)C(c3ccccc3)c3ccccc3)CC2)cc1,5,7,i,6,7,-3,-3,-1,
CC(=O)c1cc2c(cc1NS(=O)(=O)c1ccc(F)cc1)OCO2,2,.,i,-7,-4,1,3,-2,
COc1ccc(C2=NOC(C(=O)Nc3cc(C)nn3-c3ccccc3)C2)cc1OC (configuration not stated),6,5,i,-1,-19,4,-3,-8,
O=C1CC(SCc2nc3ccccc3[nH]2)C(=O)N1c1ccc(Cl)cc1 (configuration not stated),-5,-9,i,-6,.,-2,9,-11,
COc1ccc(C(C)NC(=O)c2ccncc2)cc1OC (configuration not stated),13,-12,i,7,-6,0,1,4,
COc1ccc(Cc2nnc(SCC(=O)NC3(C#N)CCCCC3)n2N)cc1,11,-14,i,.,0,-3,0,.,
Cc1ccc(CN2CCN(C(=O)C3CCC3)CC2)cc1,-3,-11,i,-6,.,12,5,8,
COc1ccc2c(c1)CCc1cnoc1-2,.,-19,.,.,12,-4,-3,.,
O=C(COc1ccccc1F)Nc1ccc2[nH]c(=O)[nH]c2c1,.,-6,i,.,-53,-4,-2,.,
Cc1ccc(NC(=O)CSc2nn(-c3ccccc3)c(=S)s2)cc1S(=O)(=O)N(C)C,18,-11,i,2,49,-6,-28,-5,
C/C=C/c1ccc(OCCCCN2C(=O)NC(C)(C)C2=O)c(OC)c1,.,-1,i,-12,.,-2,-5,0,

# 11 compounds out of the list, sorted by number of heavy atoms, highest first.
SMILES,CSC inhib,UUG fidelity,Rce1 inh,PABP FP inh,HIV Env fusion,MT1-MMP act inh,MT1-MMP act inh RFP,eIF4H FP inh,others
COc1ccc(-c2ocnc2C(=O)N2CCN(C(=O)C(c3ccccc3)c3ccccc3)CC2)cc1,5,7,i,6,7,-3,-3,-1,
COc1ccc(C2=NOC(C(=O)Nc3cc(C)nn3-c3ccccc3)C2)cc1OC (configuration not stated),6,5,i,-1,-19,4,-3,-8,
COc1ccc(Cc2nnc(SCC(=O)NC3(C#N)CCCCC3)n2N)cc1,11,-14,i,.,0,-3,0,.,
S=c1[nH]nc(-c2ccccc2)n1/N=C/c1ccc(-c2ccccc2Cl)o1,102*,-14,i,-6,.,-1,-2,16,
C/C=C/c1ccc(OCCCCN2C(=O)NC(C)(C)C2=O)c(OC)c1,.,-1,i,-12,.,-2,-5,0,
C[C@@H](O)CNC(=O)c1[nH]cnc1C(=O)N[C@H](C)c1ccccc1,.,-12,.,.,5,3,7,.,
O=C(COc1ccccc1F)Nc1ccc2[nH]c(=O)[nH]c2c1,.,-6,i,.,-53,-4,-2,.,
COc1ccc(C(C)NC(=O)c2ccncc2)cc1OC (configuration not stated),13,-12,i,7,-6,0,1,4,
Cc1ccc(CN2CCN(C(=O)C3CCC3)CC2)cc1,-3,-11,i,-6,.,12,5,8,
O=C(O)CCNc1ccc2c(c1)OCCO2,3,-15,.,89*,.,-1,7,83*,eIF4H FP inh retest=88*;PABP FP inh retest=77*
COc1ccc2c(c1)CCc1cnoc1-2,.,-19,.,.,12,-4,-3,.,

# Further results follow:
SMILES,CSC inhib,UUG fidelity,Rce1 inh,PABP FP inh,HIV Env fusion,MT1-MMP act inh,MT1-MMP act inh RFP,eIF4H FP inh,others
COc1ccccc1-c1nnc2sc(-c3ccc(N(C)C)cc3)nn12,54,-13,+,1,-15,9,-7,-2,
Cc1ccc(-c2nnc(-c3cccc4ccccc34)o2)cc1,.,-15,.,.,-141,-3,0,.,
CC(C)C(NC(=O)c1ccccc1F)C(=O)Nc1nccs1 (configuration not stated),0,.,i,1,-5,0,2,9,
COc1ccc2occ(C(C)=O)c2c1,-14,-7,i,2,15,-1,4,-4,
O=C(CSc1nnnn1-c1ccc(F)cc1)Nc1ccccc1F,-18,-22,i,-8,-10,2,2,-9,
CCOC(=O)c1sc(C)c2c(=O)n(Cc3ccc(Cl)cc3)c(C)nc12,-1,-5,i,-9,3,12,1,-11,
CCc1ccc(NC(=O)C2CCCN(S(=O)(=O)c3c(C)[nH]c(=O)[nH]c3=O)C2)cc1 (configuration not stated),-9,.,i,3,19,-1,2,7,
CCCc1cc(=O)oc2cc(OCC(=O)OC)cc(OCC(=O)OC)c12,.,.,i,-8,.,.,.,13,
CN(C)/C=C1\C(=O)ON=C1c1ccccc1,-7,.,i,-8,14,1,7,1,
CCCN1CCCc2ccccc21,-16,-18,i,17,.,3,-2,-1,
COc1ccc2oc(/C=C/N(C)C)c(C(=O)c3ccc(Cl)cc3)c2c1,40,-14,i,-4,.,7,10,4,
CC(C)(C)c1ccc(-n2ncc3c2CCCC3NC(=O)c2cnccn2)cc1 (configuration not stated),21,-16,i,11,27,10,-28,7,
COc1cc(OC)cc(C(=O)NC(=S)Nc2ccc3c4c(cccc24)CC3)c1,.,.,i,-1,.,-11,1,8,
N#Cc1ccc(CSc2nnc(Cc3cccs3)n2Cc2ccco2)cc1,-13,1,i,6,.,-13,3,28,
COc1cc(NS(=O)(=O)c2ccc(NC(=O)c3cccs3)cc2)nc(OC)n1,.,0,i,14,-1,1,2,-3,
Nc1nc(Cl)nc2c1ncn2[C@H]1C[C@H](O)[C@@H](CO)O1,76*,-18,i,-12&12,-7,-10,-5,0&-4,
CCc1nccn1S(=O)(=O)c1cc(OC)c(Cl)cc1OC,-5,-3,i,2,.,4,7,2,
C#CCNC(=O)C1=C[C@H](C2CC2)C[C@H](OCCCCO)O1,-16,-10,i,1,3,2,0,-1,
Cc1ccc(C(=O)COc2ccccc2-c2ccccc2)cc1C,22,-21,i,6,-15,2,3,2,
N#CCCn1nc(-c2ccccc2)c2ccccc2c1=O,-9,-11,i,2,-55,-3,-1,0,
CC(=O)N(CCO)Cc1cc2cc(C)cc(C)c2[nH]c1=O,-13,.,i,-4,.,3,1,-12,
O=C(NCCS(=O)(=O)c1ccc(Br)cc1)c1ccccc1,-9,-8,i,-1,19,-1,3,-3,
COCC(C)n1c(C)cc(C(=O)COC(=O)c2nc3nc(C)cc(C)n3n2)c1C (configuration not stated),0,-9,i,30,-43,-2,6,9,
NC(=O)c1nn(-c2ccc(Oc3ccccc3)cc2)c(=O)cc1O,-1,-13,i,-9,-3,-1,1,-3,
COc1cccc(CNCC(=O)NC(=O)NC2CCCC2)c1,-19,2,.,.,7,0,0,.,
c1ccc(CNc2ncn[nH]2)cc1,.,-27,.,.,3,2,8,.,
CCOc1ccc(S(=O)(=O)N2c3ccccc3CC2C)cc1 (configuration not stated),61,-10,i,10,-222,17,-4,6,
Cc1ccc(S(=O)(=O)N(CC(=O)NCCSc2ccccn2)c2cc(C)cc(C)c2)cc1,0,7,i,-2,.,-4,-9,-12,
CCn1cc(C(=O)NCCCOC)c2cc(OC)c(OC)cc2c1=O,-12,-17,i,2,4,2,6,6,
COCCNC(=O)C(OC(=O)CC1Sc2ccccc2NC1=O)c1ccncc1 (configuration not stated),11,-20,i,1,-36,3,7,-5,
CC(Nc1ccc(F)cc1F)C(=O)NC(=O)NC1CCCCC1 (configuration not stated),-2,.,i,3,-2,1,-1,-17,
COC(=O)NC(NC(=S)Nc1ccc([N+](=O)[O-])cc1)C(Cl)(Cl)Cl (configuration not stated),25,-1,i,8,.,5,-5,-12,
CCCNc1sc(S(=O)(=O)CCC)nc1S(=O)(=O)c1ccc(C)cc1,-15,.,i,19,11,0,-1,-7,
CCc1ccc(NC(=O)CCn2nc(C)c(S(=O)(=O)N3CCCCC3)c2C)cc1,-3,-17,i,-10,25,-2,-8,-14,
C[C@H](CO)N1C[C@H](C)[C@@H](CN(C)C(=O)Nc2ccccc2)Oc2c(NS(=O)(=O)c3cn(C)cn3)cccc2C1=O,.,-8&6,.,.,-10[16.7 µM],3,4,.,
CC(=O)c1cccc(NS(=O)(=O)c2c(C(=O)N3CCOCC3)c(C)n(C)c2C)c1,-5,11,i,-1,-1,-3,0,-1,
CCOc1ccc(NC(=O)N(CCN(C)C)C(C)c2cccnc2)cc1 (configuration not stated),-5,-15,i,7,-131,0,-1,-6,
CC(C)c1ccc(NC(=O)C(c2ccccc2)N2CCN(C(=O)c3ccco3)CC2)cc1 (configuration not stated),13,1,i,8,-77,-16,-11,-6,
